Screening data as filed in PubChem.
Lung fibro prol: antiproliferative effect on LL 47 fibroblasts – human, LL 47 cells, CellTiter-Glo luminescence, primary screen; LL 47 human lung fibroblast viability, ATP luminescence; hits give low values; 1.1% of 85,000 active; AID 719, 2007; viability, % at 10 µM;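 active = viability at or below 50% in the single dose screen; inactive = viability above 50%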;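 also: compound exposure lasted 72 h before the ATP readout; 100% = median luminescence of untreated cell-only wells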
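Assay system: human lung fibroblast line LL 47, low passage. Input: 1,150 fibroblasts seeded per well. Times: overnight cell rest, 72 h compound treatment at 37 °C. Evaluation: % viability of median cell-only signal. Technique: luminescent ATP detection, CellTiter-Glo. Control set: cell-only wells, no compound.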
MT1-MMP txn act: MT1-MMP promoter reporter activation – cell-based, luciferase luminescence, primary screen; HT1080 MT1-MMP promoter luciferase reporter, overnight; hits give high values; activation factor at 10 µM; 0.16% of 86,000 active; AID 750, 2007;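 active = activation factor of at least 2 for MT1-MMP transcription at 10 µM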
HUVEC inhibit: inhibitors of HUVEC proliferation, primary screen, cell-based, 384-well; CellTiter-Glo luminescence, 72 h; hits give low values; viability, % at 10 µM (by protocol); 1.1% of 86,000 active; AID 648, 2007;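 active = viability at or below 30%; inactive = viability above 30%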;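 also: 100% = median luminescence of DMSO-only cell control wells on each plate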
Smad3 FoxH1 inh: Smad3/FoxH1 peptide binding inhibitors, primary screen, biochemical, TR-FRET. TR-FRET Smad3/Dy647-FoxH1 peptide binding, europium anti-His. inhibition, % at 25 µM. 0.29% of 88,000 active. AID 630, 2007;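 active = compounds that reduce the energy-transfer binding signal between the protein and its labelled peptide by more than half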;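 also: 0% = Smad3 plus labelled peptide maximal FRET and 100% = peptide-only background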
Target sequence (P84022 whole entry, looked up): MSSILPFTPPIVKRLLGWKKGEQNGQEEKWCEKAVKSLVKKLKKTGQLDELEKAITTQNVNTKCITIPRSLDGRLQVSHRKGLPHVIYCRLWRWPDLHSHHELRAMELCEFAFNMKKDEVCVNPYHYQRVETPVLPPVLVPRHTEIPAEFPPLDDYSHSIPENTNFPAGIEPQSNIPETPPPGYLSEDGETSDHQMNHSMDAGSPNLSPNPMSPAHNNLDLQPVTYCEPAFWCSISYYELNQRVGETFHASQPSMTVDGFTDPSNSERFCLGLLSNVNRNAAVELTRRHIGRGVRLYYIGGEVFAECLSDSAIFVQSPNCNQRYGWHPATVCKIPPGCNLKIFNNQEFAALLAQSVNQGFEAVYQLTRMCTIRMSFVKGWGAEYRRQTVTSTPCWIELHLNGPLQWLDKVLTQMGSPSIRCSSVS
* hit, by the source's call; nt = not tested or not shown; & = joins results of further samples. Some of the compounds tested; count on the stated rates, not on these rows.

SMILES	Lung fibro prol	MT1-MMP txn act	HUVEC inhibit	Smad3 FoxH1 inh
c1ccc2c(c1)CCCC2C1=NCCN1 (stereo not drawn)	101.0	nt	107.0	0.2
C[C@]12CCC(=O)C=C1CC[C@@H]1[C@@H]2[C@@H](O)C[C@@]2(C)[C@H]1CC[C@]2(O)C(=O)CO	91.9	1.2	93.6	6.1
Nc1ccc(C(=O)O)c(O)c1	91.8&112.0	1.2&1.2	90.7&107.0	3.9&-2.5
C=C(CC)C(=O)c1ccc(OCC(=O)O)c(Cl)c1Cl	59.5	1	57.3	6.8
Cc1cn(C2C=CC(CO)O2)c(=O)[nH]c1=O (stereo not drawn)	nt	0.9	nt	nt
Nc1nnc(-c2cccc(Cl)c2Cl)c(N)n1	94.6	1.1	111.0	7.0
Oc1c(Cl)cc(Cl)c(Cl)c1Cc1c(O)c(Cl)cc(Cl)c1Cl	46.4*	1.1	37.9	1.3
Cc1cccc(Nc2ccccc2C(=O)O)c1C	90.3	1.2	95.1	0.7
O=C(O)CN(CC(=O)O)CC(=O)O	89.7	1.1	99.9	4.3
CN(C)CCC(c1ccc(Br)cc1)c1ccccn1 (stereo not drawn)	102.5	1.1	94.7	8.1
CCN1CCN(c2cc3c(cc2F)c(=O)c(C(=O)O)cn3C2CC2)CC1	102.2	1.2	102.8	-4.3
CN(C)C(=O)Oc1ccc[n+](C)c1	91.5	1.2	94.5	9.1
CC(=O)[C@@]1(O)CC[C@H]2[C@@H]3C[C@H](C)C4=CC(=O)CC[C@]4(C)[C@H]3CC[C@@]21C	87.2	1.1	94.1	2.9
Cc1noc(NS(=O)(=O)c2ccc(N)cc2)c1C	100.0	nt	103.7	1.8
CC1=NS(=O)(=O)c2cc(Cl)ccc2N1	92.4	1.2	104.9	1.2
CC(C)(C)NC[C@H](O)COc1nsnc1N1CCOCC1	97.9	1.1	103.4	10.9
COc1ccc2cc(CCC(C)=O)ccc2c1	101.6	1.4	107.6	-4.6

Eleven structures already listed, ordered by heavy-atom count, high to low.
SMILES	Lung fibro prol	MT1-MMP txn act	HUVEC inhibit	Smad3 FoxH1 inh
C[C@]12CCC(=O)C=C1CC[C@@H]1[C@@H]2[C@@H](O)C[C@@]2(C)[C@H]1CC[C@]2(O)C(=O)CO	91.9	1.2	93.6	6.1
CC(=O)[C@@]1(O)CC[C@H]2[C@@H]3C[C@H](C)C4=CC(=O)CC[C@]4(C)[C@H]3CC[C@@]21C	87.2	1.1	94.1	2.9
CC(C)(C)NC[C@H](O)COc1nsnc1N1CCOCC1	97.9	1.1	103.4	10.9
CN(C)CCC(c1ccc(Br)cc1)c1ccccn1 (stereo not drawn)	102.5	1.1	94.7	8.1
Cc1cccc(Nc2ccccc2C(=O)O)c1C	90.3	1.2	95.1	0.7
COc1ccc2cc(CCC(C)=O)ccc2c1	101.6	1.4	107.6	-4.6
Cc1cn(C2C=CC(CO)O2)c(=O)[nH]c1=O (stereo not drawn)	nt	0.9	nt	nt
c1ccc2c(c1)CCCC2C1=NCCN1 (stereo not drawn)	101.0	nt	107.0	0.2
CC1=NS(=O)(=O)c2cc(Cl)ccc2N1	92.4	1.2	104.9	1.2
CN(C)C(=O)Oc1ccc[n+](C)c1	91.5	1.2	94.5	9.1
Nc1ccc(C(=O)O)c(O)c1	91.8&112.0	1.2&1.2	90.7&107.0	3.9&-2.5
